Source: PubChem
Sfp inh: inhibitors of Bacillus subtilis Sfp phosphopantetheinyl transferase | Q9F4F7 | Biochemical Sfp PPTase activity, qHTS | Potency, µM, inactives show max response, negative = inhibition, actives largely listed as inhibitors | 310,000 compounds, 3.5% hits; active means well fitted inhibition curve with a large enough effect; inconclusive means small, poorly fitted or top-dose-only effect, or another doubt; inactive means no such curve, though single readings can be large or run the other way;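 further: the enzyme is Sfp with the accession as filed and its product quenches rhodamine fluorescence; potency means the concentration at half of the fitted maximal effect; 0% = enzyme reaction without inhibitor and -100% = no enzyme wells; top concentration of the series not given in the record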
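Buffer: 50 mM Hepes-Na pH 7.6, 10 mM MgCl2, 0.01% Nonidet P-40, 0.01% BSA. Enzyme 15 nM, pre-exposed to compound 15 min; substrates then added and fluorescence change tracked over 30 min.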
Menin-MLL FL inh: displaces fluorescein MLL peptide from human menin; Fluorescence polarization, fluorescein-MLL peptide displacement from menin; FP activity change, % at 61.4 µM; 290,000 tested, under 10 active; inconclusive = falling polarisation curve, or a change in total fluorescence; inactive = total fluorescence flat and polarisation flat or rising; no compound was filed as active; the % refers to the polarisation; negative = inhibition;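 further: % of control where 0% means no effect; inhibitors lower the polarisation; unlabelled MLL peptide was the positive control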
The depositor's hits bear a star; ? = inconclusive; & = joins results of further samples; ! = not confirmed by another sample; [ ] = dose if it differs, or a comment. The list is partial (hit frequency here may not be typical).

smiles | Sfp inh | Menin-MLL FL inh
CC(C)c1c(CN(C)[C@@H](C)Cc2ccccc2)n(C)n(-c2ccccc2)c1=O | -4% | 3.3[24.8 µM]
CCCCNCC(O)c1ccc(O)cc1 (centres undefined) | 5% | -3.3
CCOC(=O)CC(SP(=S)(OC)OC)C(=O)OCC (centres undefined) | 40µM* | 0.0
CCCCC[C@@H](/C=C/C=C\CCCCCCCC(=O)O)OO | 9%&10% | -3.5
CCOP(=S)(OCC)SCn1c(=O)oc2cc(Cl)ccc21 | 56µM* | -3.8
O=P(O)(O)CCCl | 2% | -1.0
C=C(C)[C@H]1C2C(=O)O[C@H]1[C@H]1OC(=O)[C@@]34O[C@@H]3C[C@]2(O)[C@@]14C | 16%&-14% | 27
CN1CC[C@]2(C)c3cc(O)ccc3N(C)[C@@H]12 | -24% | -3.1[24.8 µM]
CC(=O)OC1C([N+]2(C)CCCCC2)C[C@H]2C3CC[C@H]4C[C@H](OC(C)=O)C([N+]5(C)CCCCC5)CC4(C)C3CCC12C (some centres undefined) | 11% | -0.8
C[C@H](CCC(=O)O)C[C@H](C)C[C@H](C)C(=O)/C=C(\O)[C@H](C)C[C@H](C)C/C=C/[C@@H](C)[C@@H](O)[C@@H](C)[C@@H](O)C[C@@H]1CC[C@@](C)(C2CC[C@@](C)([C@@H](C)O)O2)O1 (some centres undefined) | 3% | 7.5
Cc1o[nH]c(=O)c1C[C@H](N)C(=O)O | 79µM*! | ?
CCCCCc1cc(O)c2c(c1)OC(C)(C)C1CC=C(C)CC21 (centres undefined) | 16% | 0.7
C[C@@H]1C(=O)O[C@H]2C[C@@]34[C@H]5C[C@@H](C(C)(C)C)[C@]36[C@H](OC(=O)[C@H]6O)O[C@]4(C(=O)O5)[C@]21O | 5% | 0.3
CC(CO)NC(=O)C1C=C2c3cccc4[nH]cc(c34)CC2N(C)C1 (centres undefined) | 17% | ?
C#CCN(C)[C@@H](C)Cc1ccccc1 | 9% | -0.1[24.8 µM]
CNC(=O)Oc1ccc2c(c1)[C@@]1(C)CCN(C)[C@@H]1N2C | 7%&3% | ?
CN(C(=O)COc1nc2ccccc2s1)c1ccccc1 | -5% | 8.0
CC1CC2CC(=O)C3CCCN4CCCC2[C@]34C1 (some centres undefined) | 15% | 2.3
CC(=O)[O][Sn]([c]1ccccc1)([c]1ccccc1)[c]1ccccc1 | 1.4µM* | -1.7
CO[C@H]1[C@@H](O)CC(OC2[C@@H](O)CC(OC3[C@@H](O)C[C@H](OC4CC[C@@]5(C)C(CCC6C5CC(O)[C@]5(C)[C@H](C7=CC(=O)OC7)CCC65O)C4)O[C@@H]3C)O[C@@H]2C)O[C@@H]1C (some centres undefined) | -7% | 6.0
CC1CC[C@@]2(NC1)O[C@@H]1C[C@H]3C4CC=C5C[C@@H](O)CC[C@]5(C)C4CC[C@]3(C)[C@H]1[C@@H]2C (some centres undefined) | 17% | ?
CCCN(CCC)CCc1ccc(O)c(O)c1 | -24% | 3.7
C[C@@H]1C[C@H](C)C[C@H](C)[C@@H](O)CC(=O)O[C@H]([C@H]2CCC[C@H]2C(=O)O)C/C=C/C=C(/C#N)[C@H](O)[C@@H](C)C1 | 5% | -0.4
O=C1Nc2ccc(Cl)cc2C(c2ccccc2)=NC1O (centres undefined) | -7% | 3.3
C=CCC(O)(C(=O)OC)c1ccccc1 (centres undefined) | 3% | 5.5
CCCCCCCCCCCCCC(=O)OC1C(C)[C@@]2(O)C(C=C(CO)C[C@]3(O)C(=O)C(C)=C[C@H]23)[C@@H]2C(C)(C)[C@]12OC(C)=O (some centres undefined) | 2% | 0.2
O=C(O)C1=CCCN(CCOC(c2ccc(C(F)(F)F)cc2)c2ccc(C(F)(F)F)cc2)C1 | -22% | ?
S=C=S | 24% | 0.9
COc1ccccc1CN1CCCC2(CCN(C(=O)Oc3ccccc3)CC2)C1 | 16% | 1.5
CCCCCCCCc1[se]c2ccccc2c1I | 16% | 2.0
C[C@H](CCC(=O)O)[C@H]1CC[C@@H]2[C@H]3CC[C@H]4C[C@@H](O)CC[C@@]4(C)[C@H]3CC[C@]21C | 32%[activator] | -0.5[24.8 µM]
C[C@@]12C=CC(=O)C=C1CCC1C2CC[C@]2(C)C(=O)CCC12 (some centres undefined) | 9% | 5.3
CC(C)CC1C(=O)N2CCCC2C2(O)O[C@@](NC(=O)C3C=C4c5cccc6[nH]c(Br)c(c56)CC4N(C)C3)(C(C)C)C(=O)N12 (some centres undefined) | -4% | -5.4
O=C(Oc1ccccc1)N1CCC2(CC1)CN(Cc1ccncc1)C2 | 5% | 3.7
CCN1C[C@]2(C)CC[C@H](OC)[C@@]34[C@H]1C1(OCO[C@@]15C[C@H](OC)C1C[C@]3(O)C5[C@H]1OC)[C@@H](O)[C@H]24 | 8% | -3.2
Oc1ccc2c3c1O[C@H]1c4c(c5ccccc5n4Cc4ccccc4)C[C@]4(O)[C@H](C2)N(CC2CC2)CC[C@@]314 | -10% | -19
CC(C)(C)C(=O)C(Oc1ccc(Cl)cc1)n1ccnc1 (centres undefined) | 12% | ?
COC(=O)/C=C\C(=O)N[C@@H]1CC[C@@]2(O)[C@H]3Cc4ccc(O)c5c4[C@@]2(CCN3CC2CC2)[C@@H]1O5 | 10% | ?
Clc1ccc(CO[C@@H](Cn2ccnc2)c2ccc(Cl)cc2Cl)cc1 | 10% | -1.9[24.8 µM]
NC(CCP(=O)(O)O)C(=O)O (centres undefined) | 50µM* | 3.5
CCOc1ccc2c3c1O[C@H]1[C@@H](O)C=C[C@H]4[C@@H](C2)N(C)CC[C@@]341 | 15% | -0.7
COC(=O)[C@@H]1C[C@@]2(O)[C@@H](O)[C@@H](O)[C@@H](O)C[C@H]2N1Cc1cccnc1 | 39%[activator] | -8.2
CC(=O)O[C@H]1[C@H]2[C@@H](OC(=O)Cc3ccccc3)[C@@H](C)C[C@]2(OC(C)=O)C(=O)/C(C)=C/[C@@H]2[C@H](CC[C@@]13CO3)C2(C)C | 0% | -2.4
CCCCC/C=C\C/C=C\C/C=C\C/C=C\CCCC(=O)NCCCl | 32µM* | 0.6
CCCC(C)C1(CC)C(=O)NC(=O)NC1=O (centres undefined) | 11% | 0.8
O=C1CCc2cccc3c2N1CC3 | -2% | 3.4
CCS(=O)CCSP(=O)(OC)OC (centres undefined) | -2% | 0.6
CCC(C)C(=O)OC1C[C@@]2(C)C(c3ccoc3)OC(=O)CC23OC2(C)OC34C(OC(=O)C(C)C)[C@]3(O)C(OC(=O)C5(C)OC5C)[C@]5(C)CC3(O)[C@](C)(C5CC(=O)OC)C14O2 (some centres undefined) | 17% | -2.8

Part of the list above in order of heavy-atom count, lowest first.
smiles | Sfp inh | Menin-MLL FL inh
O=C1CCc2cccc3c2N1CC3 | -2% | 3.4
Oc1ccc2c3c1O[C@H]1c4c(c5ccccc5n4Cc4ccccc4)C[C@]4(O)[C@H](C2)N(CC2CC2)CC[C@@]314 | -10% | -19
CCC(C)C(=O)OC1C[C@@]2(C)C(c3ccoc3)OC(=O)CC23OC2(C)OC34C(OC(=O)C(C)C)[C@]3(O)C(OC(=O)C5(C)OC5C)[C@]5(C)CC3(O)[C@](C)(C5CC(=O)OC)C14O2 (some centres undefined) | 17% | -2.8

Later entries:
smiles | Sfp inh | Menin-MLL FL inh
O=c1c(O)c(-c2ccc(O)c(O)c2)oc2c(O)c(O)cc(O)c12 | -84% | 19
C[C@]12CCC(=O)C(O)=C1CC[C@@H]1[C@H]3CCC(=O)[C@@]3(C)CC[C@@H]12 | 11% | 7.3
FC1(F)C(F)(F)C(F)(F)C2(F)C(F)(F)C(F)(F)C(F)(F)C(F)(F)C2(F)C1(F)F (centres undefined) | 11% | ?
C=C(C)[C@]12C[C@@H](C)[C@@]34O[C@](Cc5ccccc5)(O[C@@H]1[C@@H]3C=C(COC(=O)Cc1ccc(O)c(OC)c1)C[C@]1(O)C(=O)C(C)=C[C@@H]41)O2 | 22% | -1.6
O=c1[nH]cc(N(CCCl)CCCl)c(=O)[nH]1 | ? | 3.3
CC(=O)c1c(O)c(C)c(O)c(Cc2c(O)c3c(c(C(=O)/C=C\c4ccccc4)c2O)OC(C)(C)C=C3)c1O | -30% | 18
ClC1=C(Cl)C2(Cl)C3C4CC(C5OC45)C3C1(Cl)C2(Cl)Cl (centres undefined) | 8% | 0.1
CN1CC[C@@H]2CN3CCc4cccc(c43)[C@H]2C1 | -9% | ?
C=CCN=C=S | -5% | 3.3
CCc1cccc(CC)c1NC1=NCCN1 | 2% | -2.3
CNC(=O)Oc1ccc2c(c1)[C@@]1(C)CCN(C)C1N2C (some centres undefined) | ? | -25&0.9&-0.1
CC(=O)OC1CC2C(C)(C)C(O)C=C[C@@]2(C)C2CC[C@]3(C)C(=CC(=O)OC3c3ccoc3)[C@]12C (some centres undefined) | -6% | 7.1
C[C@@H](Cc1ccccc1)NCCC(c1ccccc1)c1ccccc1 | 22% | 3.2[24.8 µM]
C#C[C@@]1(O)CC[C@@H]2[C@@H]3CCC4=CC(=O)CC[C@@]4(C)[C@H]3CC[C@]21C | -3% | -1.9[24.8 µM]
CC1CC[C@]2(NC1)OC1CC3C4CC=C5CC(O)CC[C@@]5(C)C4CC[C@]3(C)C1C2C (some centres undefined) | -11% | -2.2
CC(C)(O)C1C2OC(=O)C1[C@]1(O)C[C@H]3O[C@]34C(=O)O[C@H]2[C@]14C (some centres undefined) (tested in a mixture with another compound) | 8% | -5.8
O=C(Cc1ccc(Cl)c(Cl)c1)N1CCCC[C@H]1CN1CCCC1 | -9% | -7.6
CC[C@H](C)[C@H](NC(=O)CN)C(=O)N[C@@H](CC(C)C)C(=O)NCC(=O)N[C@@H](Cc1ccccc1)C(=O)N[C@H](C(=O)N[C@@H](Cc1ccccc1)C(=O)N[C@H](C(=O)N[C@@H](CC(C)C)C(=O)O)[C@@H](C)O)C(C)C | 7% | -1.8
CN(C)C(=S)SC(=S)N(C)C | 11µM* | -4.5
C=CC[C@]1(O)CCC2C3CCC4=CCCCC4C3CCC21C (some centres undefined) | -9% | -1.2
CC(C(=O)O)C1CCC2C3CC=C4CC(O)CC[C@@]4(C)C3CC[C@]12C (some centres undefined) | ? | 0.5
CC(CCC(=O)O)C1CCC2C3CC[C@@H]4CCCC[C@@]4(C)C3CC[C@@]12C (some centres undefined) | 11% | ?
CCCCC(C#N)(Cn1cncn1)c1ccc(Cl)cc1 (centres undefined) | 5% | -23
Oc1cc[c]([Hg][Cl])cc1 | 0.056µM* | -5.7
CCCCC/C=C\C/C=C\C/C=C\C/C=C\CCCC(=O)NCCCC(=O)O | ? | ?
CCOP(=O)(OCC)O/C(=C/Cl)c1ccc(Cl)cc1Cl | 16% | ?
CCCC1CCCCN1 (centres undefined) | 14% | 3.6
c1cc2c(cc1[C@H]1OC[C@@H]3[C@H]1CO[C@H]3c1ccc3c(c1)OCO3)OCO2 | -14% | -3.0
CC1OC(C)OC(C)O1 (centres undefined) | -1%&7% | 5.0&0.0
COC(=O)C1(O)CC2OC1(C)n1c3ccccc3c3c4c(c5c6ccccc6n2c5c31)C(=O)NC4 (centres undefined) | -8% | 5.0[11.7 µM]
[O]=[Cd] | 11% | -3.9
C[C@@H](Cc1cccc(C(F)(F)F)c1)NCCCc1ccccc1 | -21% | 3.9
O=C(O)[C@@H]1Cc2[nH]cnc2C(c2cccnc2)N1 (some centres undefined) | ? | -6.5
O=[N+]([O-])c1ccc(-c2[se]c3ccccc3c2I)cc1 | -21% | -0.6
C[C@]1(C(=O)O)CCC[C@]2(C)c3cc(O)ccc3CC[C@@H]12 | 12% | -0.7
COC(=O)C1=CO[C@@H](C)[C@@H]2CN3CCc4c([nH]c5cc(OC)ccc45)[C@@H]3C[C@H]12 | -3% | ?
N#CC1(N2CCCCC2)CCCCC1 | 14% | 0.7
CC(C)N(CC[C@@](C(N)=O)(c1ccccc1)c1ccccn1)C(C)C | 11% | -3.6[24.8 µM]
O=C(O)/C=C\CO | 16% | -3.8
O=C(N[C@H]1CN2CCC1CC2)c1ccc(Cl)cc1 | -18%&15% | 1.7&-3.3
CCNc1nc(Cl)nc(NCC)n1 | -1% | -3.1
C=C(C)[C@H]1CN[C@H](C(=O)O)[C@@H]1CC(=O)O | ? | ?
O=C(O)CNC(=O)[C@@H](CS)Cc1ccccc1 | 35µM* | -5.4[24.8 µM]
CN1C2CCC1CC(C(=O)OC(CO)c1ccccc1)C2 (centres undefined) | -1% | -2.5
CO[C@@H](C)[C@](O)(C(=O)OCC1=CCN2CC[C@@H](O)[C@H]12)C(C)C | 14% | 4.9[24.8 µM]
CC/C=C\C/C=C\C/C=C\C/C=C\C/C=C\CCCC(=O)NCC(=O)O | 10% | -0.2
CN1C(=O)CCS(=O)(=O)[C@@H]1c1ccc(Cl)cc1 | 14% | -2.1[24.8 µM]
CN1CCCC2(CCN(C(=O)c3csnn3)CC2)C1 | -11% | 0.4

Entries above that have two or more sulfur atoms, in the order listed:
smiles | Sfp inh | Menin-MLL FL inh
CCOC(=O)CC(SP(=S)(OC)OC)C(=O)OCC (centres undefined) | 40µM* | 0.0
CCOP(=S)(OCC)SCn1c(=O)oc2cc(Cl)ccc21 | 56µM* | -3.8
S=C=S | 24% | 0.9
CCS(=O)CCSP(=O)(OC)OC (centres undefined) | -2% | 0.6
CN(C)C(=S)SC(=S)N(C)C | 11µM* | -4.5
